# NPYLR7 agonist: activates Aedes aegypti NPYLR7 receptor. HEK293T NPYLR7/Galpha15, GCaMP6s calcium fluorescence. activation, % at 10 µM. 0.15% of 270,000 active; in the data active = activation above about 40%;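 note: 0% = vehicle and 100% = reference agonist at the receptor; some compounds past the cut are filed as inactive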
# NPYLR7 agonist max-min: also measured in NPYLR7 agonist; calls as there; activation, %; measured here: Max-Min RFU normalised activation; some inactives read as strong as hits;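 span of the calcium signal over five minutes; 0% = vehicle and 100% = native peptide agonist; compound fluorescence can raise it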
# Active calls of the source: *.
SMILES,NPYLR7 agonist,NPYLR7 agonist max-min
CCN(CC)C(=O)Oc1ccc2c(ccn2Cc2cc(OC)cc(OC)c2)c1-c1cc(F)cc(F)c1,9.5,3.3
CCCCn1nnnc1CN1C(=O)c2cc(Cl)c(Cl)cc2C1=O,2.8,2.2
CCn1c2ccccc2c2cc(Nc3cccc(-c4cc5ccccc5o4)n3)ccc21,1.5,-2.7
O=C(c1ccc(F)c(F)c1)N1CCN(Cc2cccc(-c3noc(-c4cccs4)n3)c2)CC1,-3.2,-7.9
O=C(Nc1cccnc1N1CCN(S(=O)(=O)c2ccc(C(F)(F)F)cc2)CC1)c1ccc2c(c1)OCO2,17.1,2.5
Cc1cc(N2CCN(c3ccccc3F)CC2)nc(-n2cc([N+](=O)[O-])cn2)n1,3.7,10.3
Cc1ccc(S(=O)(=O)Nc2ccccc2C=NNP(=O)(c2ccccc2)c2ccccc2)cc1,-1.7,-3.4
COc1ccc(C(C)NC(=O)c2csc(-c3cccs3)n2)cc1F (configuration not stated),11.7,11.1
Cc1ccc(-c2cc3c(=O)n(Cc4nc(-c5cccc(Cl)c5)oc4C)ccn3n2)cc1,4.3,1.4
COc1cccc(Cn2cccc2CN(Cc2ccccc2)C(=O)CN(CC(C)C)S(=O)(=O)/C=C/c2ccccc2)c1,15.3,9.9
Cn1cnc2c(NCc3ccccc3)nc(NCCO)nc21,-0.8,-2.2
CC(=O)c1ccc2ccccc2c1OC(F)F,-1.4,-6.7
CNCc1cc(-c2cccc(-n3nc(C)cc3C)c2)ccc1OC,12.2,26.0
Cc1cc(NC(=O)N2CCN(C(=O)c3cc(Cl)ccc3F)CC2)n(C)n1,1.5,0.7
CCn1cc(C(=O)N2CCCC(C(=O)c3ccc4ccccc4c3)C2)cn1 (configuration not stated),-0.7,-1.5
COc1ccccc1-n1cc(C(=O)NC(C)c2cnn(-c3ccccn3)c2C)cn1 (configuration not stated),6.0,6.0
Cc1ccc(C(C)NC(=O)CNCc2cc(F)ccc2F)cc1 (configuration not stated),18.6,10.6
Cc1cnc(CNC(=O)c2ccc(OC3CCN(CC(C)(C)C)CC3)c(Cl)c2)cn1,13.4,1.2
COc1ccc(O)cc1CN1CCC2(CC1)CN(C)CCN2C,16.4,2.7
CC(C)(C)C(=O)Nc1ccc(C(=O)Nc2nccs2)cc1,-4.8,-4.3
COCc1cc(N(C)Cc2ccccc2)nc(SCc2cccc(C(=O)N3CCCC3)c2)n1,0.3,8.2
CCN(CC)CCCn1c2c(c(SCC(=O)Nc3ccc(C)cc3C)nc1=O)CCC2,2.8,10.6
CCCC1COCCN1C(=O)c1cc(S(N)(=O)=O)ccc1F (configuration not stated),2.3,-5.6
Cn1nc(C2CCN(C(=O)c3ccc(O)cc3)CC2)n(Cc2ccccc2)c1=O,2.1,-1.7
CC[C@H]1C[C@@H](NC(=O)c2ccccc2)C[C@@H](c2cnc(-c3ccccn3)nc2)O1,4.7,4.0
Cc1ccc(-c2cn[nH]c2C2CCCN(C(=O)C(=O)c3cccn3C)C2)cc1 (configuration not stated),5.3,4.1
CCOC(=O)c1cccc(C(=O)Nc2cc(=O)n(-c3ccccc3)[nH]2)n1,-15.7,-23.1
O=C(Nc1ccc2c(c1)OC(F)(F)O2)c1ccc(CN2CCCC2=O)cc1,-13.1,-13.5
Cc1cccc(CN2CCN(C(=O)CCn3cncn3)CC2=O)c1,1.9,0.9
Cc1cccc(NC(=O)CSC2=NS(=O)(=O)c3ccccc3N2)c1,11.7,5.7
COc1cccc(-c2cc(C(=O)O)c3[nH]c(C)nc3n2)c1,0.6,-0.9
CCOCC(=O)N1CCN(Cc2cccc(-c3noc(-c4ccccc4)n3)c2)CC1,2.6,1.2
CCN(CC)CC(Cn1c2ccccc2c2ccccc21)OC(C)=O (configuration not stated),2.4,9.7
Cc1nnc(C)n1-n1ccc2nc3ccn(-c4ccccc4)c(=O)c3cc2c1=O,-2.8,-2.8
CC(=O)OCC(=O)[C@@]1(O)CC[C@H]2[C@@H]3CCC4=CC(=O)CC[C@]4(C)[C@H]3[C@@H](O)C[C@@]21C,-13.8,-17.5
CN(Cc1ccc(-c2ccc(Cl)cc2)o1)c1cn[nH]c(=O)c1Cl,11.7,12.0

# Already shown: 21 of the compounds above.
SMILES,NPYLR7 agonist,NPYLR7 agonist max-min
COc1ccccc1-n1cc(C(=O)NC(C)c2cnn(-c3ccccn3)c2C)cn1 (configuration not stated),6.0,6.0
Cc1ccc(C(C)NC(=O)CNCc2cc(F)ccc2F)cc1 (configuration not stated),18.6,10.6
Cc1cnc(CNC(=O)c2ccc(OC3CCN(CC(C)(C)C)CC3)c(Cl)c2)cn1,13.4,1.2
COc1ccc(O)cc1CN1CCC2(CC1)CN(C)CCN2C,16.4,2.7
CC(C)(C)C(=O)Nc1ccc(C(=O)Nc2nccs2)cc1,-4.8,-4.3
COCc1cc(N(C)Cc2ccccc2)nc(SCc2cccc(C(=O)N3CCCC3)c2)n1,0.3,8.2
CCN(CC)CCCn1c2c(c(SCC(=O)Nc3ccc(C)cc3C)nc1=O)CCC2,2.8,10.6
CCCC1COCCN1C(=O)c1cc(S(N)(=O)=O)ccc1F (configuration not stated),2.3,-5.6
Cn1nc(C2CCN(C(=O)c3ccc(O)cc3)CC2)n(Cc2ccccc2)c1=O,2.1,-1.7
CC[C@H]1C[C@@H](NC(=O)c2ccccc2)C[C@@H](c2cnc(-c3ccccn3)nc2)O1,4.7,4.0
Cc1ccc(-c2cn[nH]c2C2CCCN(C(=O)C(=O)c3cccn3C)C2)cc1 (configuration not stated),5.3,4.1
CCOC(=O)c1cccc(C(=O)Nc2cc(=O)n(-c3ccccc3)[nH]2)n1,-15.7,-23.1
O=C(Nc1ccc2c(c1)OC(F)(F)O2)c1ccc(CN2CCCC2=O)cc1,-13.1,-13.5
Cc1cccc(CN2CCN(C(=O)CCn3cncn3)CC2=O)c1,1.9,0.9
Cc1cccc(NC(=O)CSC2=NS(=O)(=O)c3ccccc3N2)c1,11.7,5.7
COc1cccc(-c2cc(C(=O)O)c3[nH]c(C)nc3n2)c1,0.6,-0.9
CCOCC(=O)N1CCN(Cc2cccc(-c3noc(-c4ccccc4)n3)c2)CC1,2.6,1.2
CCN(CC)CC(Cn1c2ccccc2c2ccccc21)OC(C)=O (configuration not stated),2.4,9.7
Cc1nnc(C)n1-n1ccc2nc3ccn(-c4ccccc4)c(=O)c3cc2c1=O,-2.8,-2.8
CC(=O)OCC(=O)[C@@]1(O)CC[C@H]2[C@@H]3CCC4=CC(=O)CC[C@]4(C)[C@H]3[C@@H](O)C[C@@]21C,-13.8,-17.5
CN(Cc1ccc(-c2ccc(Cl)cc2)o1)c1cn[nH]c(=O)c1Cl,11.7,12.0

# The list goes on.
SMILES,NPYLR7 agonist,NPYLR7 agonist max-min
O=C(c1ccccc1)N1CCN(c2ncnc3c2oc2ccccc23)CC1,7.6,4.2
CNC(=O)C1CCCN(c2cc(C)nc3c(OC(F)(F)F)cccc23)C1 (configuration not stated),0.6,-0.9
CCc1ccccc1NC(=O)NCCn1nc(-c2cccnc2)ccc1=O,8.4,3.0
NC(=O)CN(C(=O)C1=Cc2cc(Cl)ccc2OC1)C1CCCC1,-23.3,-25.5
O=C(NC(c1ccc(Cl)cc1)c1cnccn1)C1CCN(Cc2ccccc2F)CC1 (configuration not stated),6.8,9.1
Cc1nnc(CN2CCC(N3CCCC(C(=O)N4CCOCC4)C3)CC2)o1 (configuration not stated),2.4,1.7
CCOCc1[nH]c(=S)[nH]c(=O)c1Cc1ccc(OC(C)C)cc1,7.4,7.9
O=C(CN(C1CC1)S(=O)(=O)c1ccc(Cl)c([N+](=O)[O-])c1)N(Cc1ccc(F)cc1)Cc1cccs1,-1.8,4.5
CCCc1nc(-c2ccc(-c3ccc(F)cc3)cc2)no1,4.8,2.1
C/C=C(\C)C(=O)N1CCC2(CC1)CC(C(=O)OC)c1ccccc12 (configuration not stated),1.1,40.1
COc1ccccc1C(=O)Oc1coc(CSc2nc(C)cc(C)n2)cc1=O,-21.5,-16.8
Cc1c(F)cccc1N1C(=O)CSC1c1cccc(NC(=O)c2cccc([N+](=O)[O-])c2)c1 (configuration not stated),3.0,12.8
NC(=O)c1c(N)sc2c1CCC2,8.1,6.3
COc1ccc(Nc2nc(-c3ccco3)nc3cc(Cl)ccc23)cc1,10.3,15.2
COc1ccc(CN2CCN(Cc3nc4ccc(Cl)cc4c(=O)[nH]3)CC2)cc1OC,-8.1,-12.1
Cc1cccc(OCC(=O)NCCCn2nc(-c3ccco3)ccc2=O)c1,-1.1,-2.5
CCN(Cc1noc(CC(C)C)n1)C(=O)c1cnc2sc(C)c(C)n2c1=O,-3.2,-6.8
CCn1cc(SCC(=O)N2CCC3(CCCO3)CC2)c2ccccc21,5.7,4.8
O=C(NCC1CC=CCC1)Nc1ccccc1CN1CCOCC1 (configuration not stated),4.4,-0.4
Cc1c(-c2n[nH]c(=O)n2[C@@H](C)c2ccc(Cl)cc2)cnn1C,5.9,12.9
COc1cccc(-n2nc3c(=O)n(Cc4ccccc4Cl)nc(C)c3c2C)c1,-2.4,-5.3
O=C(NCc1coc(-c2ccccc2)n1)c1cccc2ccnn12,6.0,4.3
Cc1ccc(-c2ccnc(-c3ccc(CCC(=O)O)cc3)n2)c(C)n1,4.5,3.2
CCOC(=O)[C@H]1C[C@]2(CCCCN(CCOC(C)=O)C2=O)N(C(=O)C2CC2)[C@H]1c1ccco1,-1.1,5.1
Cc1cc2ncn(CN3CCN(c4ccccc4O)CC3)c2cc1C,-3.6,-3.0
O=C(c1cn2ccsc2n1)N1C[C@H]2C[C@H](O)[C@H](O)C[C@H]2C1,2.2,-0.1
COC(=O)c1ccc(N2C(=O)CSC2c2ccccn2)cc1 (configuration not stated),1.2,-2.1
CC(=O)N1CCN(C(=O)Cc2cc(-c3ccc(C)cc3)on2)CC1,8.1,9.5
COc1ncccc1CNc1snc(Cl)c1C#N,2.6,0.7
O=C(NCc1ccco1)C1CCCN(S(=O)(=O)c2ccc(Cl)cc2)C1 (configuration not stated),4.2,0.1
Cc1ccc(C)c(Cn2c(CN3CCCCC3C)nc3c2c(=O)n(C)c(=O)n3C)c1 (configuration not stated),3.8,6.4
Cc1cc(Oc2ccc3c(C4CC4)noc3n2)ccc1F,4.3,2.3
CCOC(=O)c1nn(-c2ccccc2C)c(=O)cc1OCC(=O)Nc1cccc(F)c1,11.0,5.0
CCOC(=O)C1=C(C)NC(=O)NC1c1ccc(OCc2ccccc2)c(OCC)c1 (configuration not stated),-1.3,-3.2
COc1cc(OC)c(C2CC(=O)Nc3c2c(=O)nc(SC)n3C)cc1OC (configuration not stated),-0.5,60.3
COc1ccccc1CN(Cc1cccnc1)Cc1coc2ccc(C)cc2c1=O,-3.5,-5.8
O=C(CSc1nnc(CSc2nc3ccccc3s2)n1-c1ccccc1)NCc1ccco1,-2.4,-5.0
COc1cc(C)c(Br)cc1S(=O)(=O)NCCCN1CCOCC1,-4.2,-4.4
CC1=C(c2ccc(F)c(F)c2)N2CCS(=O)(=O)N=C2S1,1.5,-2.4
Cc1cc(C(=O)N2CC(c3ccccn3)C2)sc1-c1ccccc1,-4.1,-4.0
CC(C(=O)Nc1cccc2ncccc12)N(C)Cc1nc2ccccc2c(=O)[nH]1 (configuration not stated),0.2,-1.3
Cc1sc(CNC(=O)C(C)NC(=O)C2CCC2)nc1-c1ccc(Cl)cc1 (configuration not stated),11.8,10.1
CCCc1noc(CCC(=O)N(C)Cc2cc(Br)cn2C)n1,3.1,5.4
Cc1ccn2cc(C(=O)NCCN3CCN(C)CC3)nc2c1,0.5,-1.8
Cc1ccc[n+](C2=C(c3c(C)[nH]n(-c4ccc(Cl)c(Cl)c4)c3=O)C(=O)N(C(C)C)C2=O)c1,6.3,10.7
CCCS(=O)(=O)NC1CCN(C(=O)c2c[nH]c(C(=O)N3CCCC3)c2)CC1,10.0,4.4
Cn1ccnc1C1CCCCN1C(=O)c1cc(COc2cccc3cccnc23)on1 (configuration not stated),32.1,20.7
Cc1ccc(-c2nc(N3CCN(CCO)CC3)ncc2-c2ccccc2C)cc1,1.5,-1.5
COc1cn2c(cc1=O)C(=O)N(CCNC(=O)c1ccccc1)CC2,17.2,11.9
COc1cccc([C@@H](C)NC(=O)CSc2n[nH]c(C)n2)c1,15.6,0.6
O=C(CSc1nnc(-c2ccccc2)n1-c1ccccc1)N/N=C\c1ccccc1Br,-2.6,-9.1
O=C(CSc1nc(-c2ccco2)nc2ccccc12)N1CCCCC1,6.2,0.7
COc1ccccc1CN(C)C(=O)CCc1n[nH]c(=S)[nH]c1=O,6.4,3.2
N[C@@H](Cc1cnc[nH]1)C(=O)N1C[C@H]2CC=CC[C@H]2C1,4.6,0.0
CCCc1cnc(C)nc1N1CCCN(S(C)(=O)=O)CC1,-8.6,-10.1
O=C(Nc1ccc(F)c(F)c1)N(Cc1ccc(OS(=O)(=O)c2cccc(C(F)(F)F)c2)cc1)Cc1ccco1,3.3,11.5
COC(=O)[C@@H](C)NC(=O)[C@H]1CN(C(C)=O)CCN1C(=O)C1CCNCC1,-6.2,-13.7
Cc1ccc(/C=C/S(=O)(=O)NNC(=O)c2cccn2C)cc1,0.6,6.1
CCOCc1nn2c(=O)c(NC(=O)c3ccccc3C)cnc2s1,0.1,0.6
CCOC(=O)[C@@H]1[C@H](c2ccccc2)[C@@H](NS(=O)(=O)c2cccs2)[C@H]2CCCN21,3.2,14.6
COCCCN(CC(=O)N1CCc2sccc2C1c1ccc(Cl)cc1)C(=O)c1ccccc1OC (configuration not stated),0.7,2.1
Cc1cc(C(=O)N2CC(=O)N(Cc3cccnc3)CC(OCC3CC3)C2)nn1C (configuration not stated),20.6,10.5

# A portion of the library, so the mix of outcomes need not match the whole.
